H5N1 CPE = antiviral screen in MDCK cells, H5N1 avian flu; cytopathic effect, luminescence, 72 h; active compounds read high; no value below 0 was filed and about half of the inactive calls have no number; reference of the scale not given here; inhibition, % at 50 µM; actives 0.07% (n = 96,000); AID 740; in the data active = inhibition above about 25%
The depositor's hits bear a star; i = inactive. Some of the compounds tested; the hit share may differ from the screen's.

no.	Molecule	H5N1 CPE
1	O=C(Nc1ccccc1-c1ccccc1)C12CC3CC(CC(C3)C1)C2	i
2	CCOC(=O)CSc1ncnc2c1cnn2-c1ccc(Cl)cc1	0.3
3	CCOc1cc(S(=O)(=O)NCc2ccc3c(c2)OCO3)c(C)cc1C	1.1
4	CCCCN=c1sc(C(=O)OC)cc(=O)n1CCCC	2.5
5	Cc1ccc2ccccc2c1NC(=O)CNC1CCCCC1	i
6	COC(=O)c1ccc(CSc2nnnn2C)o1	i
7	Cn1c(CCNC(=O)c2ccc(F)cc2)nc2ccccc21	1.4
8	CC1CCc2sc(C(=O)NCc3ccc(F)cc3)cc2C1 (configuration not stated)	1.2
9	CCN1CCN(C(CNC(=O)c2ccc3c(c2)OCO3)c2cccnc2)CC1 (configuration not stated)	13.8
10	CCOC(=O)c1sc(NC(=O)C2CC2)cc1C	1.1
11	COc1ccccc1N1CCN(Cc2ccc(Br)s2)CC1	i
12	CCCN1C(=O)/C(=C/c2ccc(N3CCCC3)c(C)c2)NC1=S	6.9
13	COC(=O)c1ccc(NC(=O)C2CCN(C(=O)c3cc(OC)c(OC)c(OC)c3)CC2)cc1	i
14	COc1ccccc1CC(=O)Nc1ccccc1C(=O)O	0.6
15	Cc1ccc(-n2ncc3c(=O)n(CC(=O)OCc4ccccc4)cnc32)cc1	0.2

Reprinted from the part before: two compounds; new compounds follow.
no.	Molecule	H5N1 CPE
14	COc1ccccc1CC(=O)Nc1ccccc1C(=O)O	0.6
15	Cc1ccc(-n2ncc3c(=O)n(CC(=O)OCc4ccccc4)cnc32)cc1	0.2
16	O=C(Nc1c(C(=O)O)oc2ccc(Br)cc12)c1ccccc1	0.5
17	COc1ccc(OC)c(S(=O)(=O)NCc2ccccc2)c1	1.1
18	CC(C)CCn1c(SCc2ccc(Cl)cc2)nc2c1c(=O)[nH]c(=O)n2C	1.6
19	COn1c(=O)c(-c2cccs2)[n+]([O-])c2ccccc21	0.1
20	CCSC1(SCC)N=C(N)C2(C#N)C(c3ccccc3)NC3=C(CCC3)C12C#N (configuration not stated)	i
21	COC(=O)CSc1nc2sc3c(c2c(=O)n1-c1ccccc1)CCN(C)C3	1.4
22	O=C(NCCCN1CCOCC1)c1cc(-c2ccccc2)on1	i
23	N#CC1=C2SCN(c3ccccc3)CN2C(=O)CC1c1cccs1 (configuration not stated)	0.2
24	COC(=O)c1cn(NC(=O)c2cccc(N(C)C)c2)c(=O)c2ccccc12	0.7
25	Cc1ccc(-c2nnn(CC(=O)N(c3cccc(O)c3)C(C(=O)NC(C)(C)C)c3cccs3)n2)o1 (configuration not stated)	2.5
26	CCNC(=S)NNC(=O)c1cc(-c2ccccc2C)nc2ccccc12	0.5
27	CN(C)CC(C(=O)c1ccccc1)c1ccccc1 (configuration not stated)	i
28	O=C(CCC1CCCC1)N1CCN(S(=O)(=O)Cc2ccccc2)CC1	0.5
29	O=C(c1cc(-c2ccccc2)on1)N1CCCC1	i
30	Cc1nnc(SCC(=O)N2CC(=O)Nc3ccccc32)n1-c1ccccc1	0.1
31	COc1ccc(Cl)cc1N1C(=O)/C(=C\c2sccc2C)N=C1SCC(=O)NC1CC1	i
32	CCC(O)CNc1nc(SC)nc2sc3c(c12)CCN(C)C3 (configuration not stated)	i
33	O=C(COc1ccc(Br)cc1CO)Nc1ccccc1F	0.7
34	CCOC(=O)c1cc(-c2cccnc2)nn1-c1ccccn1	i
35	COc1ccccc1NC(=O)CSc1nnc(CNC(=O)c2ccco2)o1	0.2
36	COc1ccccc1-c1cc(C(=O)N2CCCCC2)no1	i
37	CCC(=O)N1CCc2cc(Br)cc(S(=O)(=O)NCC3CCCN3CC)c21 (configuration not stated)	2.7
38	O=C(NCCCn1ccnc1)c1cc(S(=O)(=O)N2CCOCC2)c(Cl)cc1Cl	i
39	Cc1cccc(CS(=O)(=O)Cc2ccc(C(=O)NCCCN3CCCC3)o2)c1	1.3
40	Cc1cc(-n2c(C)cc(C(=O)CN3C(=O)NC4(CCCC4)C3=O)c2C)no1	i
41	Cc1c(NC(=O)COC(=O)c2cc3c4ccccc4n(C)c3s2)c(=O)n(-c2ccccc2)n1C	0.4
42	CC(C)N(C(=O)CSc1nnc(NC(=O)C2CCC2)s1)C(C)C	0.7
43	COc1ccc(-c2ccc(-c3nnc(-c4cc(OC)ccc4OC)o3)cc2)cc1	i
44	Cc1cccc(S(=O)(=O)CC(=O)Nc2nc(-c3ccccc3)cs2)c1	i
45	O=C(NC(=S)NCCc1ccccc1)c1ccccc1	4.4
46	CCOc1ccc(N2CC(C(=O)Nc3ncccc3C)CC2=O)cc1 (configuration not stated)	i
47	O=S(=O)(c1cccc(-c2nc3ccccc3s2)c1)N1CCOCC1	0.5
48	COc1cc(C=O)c(Br)cc1OCc1ccc(C)cc1	i
49	N#Cc1c2c(c(-n3cnc4ccccc43)n3c1nc1ccccc13)CCC2	1.5
50	O=C(NCc1cn2ccccc2n1)c1ccc2c(c1)OCO2	0.5
51	COc1cc(/C=N/NC(=O)c2c(-c3ccccc3)noc2C)ccc1O	i
52	Nc1cccc(Cl)c1N1CCOCC1	1.3
53	CCC(=O)Nc1ccc(S(=O)(=O)N2CCOCC2)cc1	i
54	CNc1c([N+](=O)[O-])cnn1-c1ccc(Cl)cc1Cl	0.6
55	COC(=O)/C(=C\C(=O)c1ccccc1)Nc1cccc(C(F)(F)F)c1	i
56	N#Cc1cn(-c2ccccc2)nc1-c1ccc2c(c1)OCCO2	i
57	CCCCn1nc(C(=O)NC2=NCCS2)c2ccccc2c1=O	i
58	CC1CCN(C(=O)CN2C(=O)C(C)(C)Oc3ccc(C(=O)NC4CCCC4)cc32)CC1	i
59	Cc1nc2ccc(NC(=O)c3ccc(Cl)s3)cc2s1	0.6
60	COc1ccc(OC(C)C(=O)Nc2cccnc2)cc1 (configuration not stated)	i

Next part, overlapping the part above by six compounds.
no.	Molecule	H5N1 CPE
55	COC(=O)/C(=C\C(=O)c1ccccc1)Nc1cccc(C(F)(F)F)c1	i
56	N#Cc1cn(-c2ccccc2)nc1-c1ccc2c(c1)OCCO2	i
57	CCCCn1nc(C(=O)NC2=NCCS2)c2ccccc2c1=O	i
58	CC1CCN(C(=O)CN2C(=O)C(C)(C)Oc3ccc(C(=O)NC4CCCC4)cc32)CC1	i
59	Cc1nc2ccc(NC(=O)c3ccc(Cl)s3)cc2s1	0.6
60	COc1ccc(OC(C)C(=O)Nc2cccnc2)cc1 (configuration not stated)	i
61	Cc1ccc(NC(=O)CCC(=O)NNC(=O)C(c2ccccc2)c2ccccc2)c(C)c1	i
62	O=C(NCc1ccco1)C(c1ccccc1)N(Cc1cccnc1)C(=O)Cn1nnc2ccccc21 (configuration not stated)	1.8
63	COc1cc(OC)c(OC)cc1C=NCC1(c2ccccc2)CCCC1	i
64	CN1CCN(S(=O)(=O)c2ccc(N(C)CC(=O)Nc3ccc(F)cc3)nc2)CC1	i
65	CCn1cc(CNC(=O)c2cc(Cl)ccc2OC)c(C)n1	i
66	COC(=O)C1=C(C)NC2=C(C(=O)CC(C)(C)C2)C1c1cccc(C)n1 (configuration not stated)	i
67	CC(C(=O)NCc1cccnc1)N1C(=O)c2ccccc2C1=O (configuration not stated)	i
68	Cc1ccc(S(=O)(=O)N2CCC(C(=O)N3Cc4ccccc4C3)CC2)cc1	1.4
69	CCCc1nc2oc(C(=O)OCC)c(N)c2c2c1COC(C)(C)C2	0.3
70	C=CCn1c(SCC(=O)Nc2cccc(C(=O)OC)c2)nnc1C(C)NC(=O)c1cccs1 (configuration not stated)	0.7
71	CSc1ccccc1NC(=O)Nc1ccc(F)c(Cl)c1	i
72	COC(=O)c1cccc(NC(=O)CCCOc2cccc(C)c2)c1	i
73	CCc1ncc(C(=O)c2ccc(OC)cc2)n1C	i
74	CC(Cc1cccs1)NC(=O)NC1CCCCC1 (configuration not stated)	0.7
75	CCN(C(=O)COc1ncnc2scc(-c3ccc(F)cc3)c12)C1CCS(=O)(=O)C1 (configuration not stated)	0.9
76	CC(C)(Cc1nc2ccccc2[nH]1)C(=O)O	1.1
77	NC(=O)/C(=N\O)c1ccccc1	i
78	Cc1onc(-c2ccccc2Cl)c1C(=O)N1C=CC(C(F)(F)F)=NCC1	i
79	O=C(c1ccco1)N1CCN(c2ncnc3c2cnn3-c2ccccc2)CC1	0.1
80	COCCNCCOc1ccccc1-c1ccccc1	i
81	COC(=O)c1[nH]c2cccc(OC)c2c1NC(=O)CCN1CCC(C)CC1	i
82	O=c1[nH]c2ccsc2c(=O)n1-c1ccc(F)c(Cl)c1	3.4
83	CN(CC(=O)N1CCc2ccccc21)S(=O)(=O)c1ccc(Br)s1	0.1
84	CC(C)C(=O)Nc1cccc(-c2cnc3ccccc3n2)c1	i
85	CCc1ccc(NC(=O)N(C2CCC(C)CC2)C2CCN(C(C)=O)CC2)cc1 (configuration not stated)	i
86	CCCn1nnnc1SCC(=O)NCc1ccc(OC)cc1	i
87	CCOc1cccc(C2C(C#N)=C(N)Oc3cc(C)oc(=O)c32)c1OCC (configuration not stated)	i
88	C=CCn1c(SCc2csc(C)n2)nc2sc3c(c2c1=O)CCCC3	0.4
89	CCOC(=O)N1CCN(C(=O)COc2ccccc2Cl)CC1	i
90	Cc1ccc(C(=O)Nc2nc3ccccc3n2CCN2CCCC2)cc1	2.1

2 compounds picked at random from the list so far, as already listed:
no.	Molecule	H5N1 CPE
80	COCCNCCOc1ccccc1-c1ccccc1	i
89	CCOC(=O)N1CCN(C(=O)COc2ccccc2Cl)CC1	i

The list continues.
no.	Molecule	H5N1 CPE
91	O=C(NCc1cccs1)c1ccc(CS(=O)(=O)c2ccc(Cl)cc2)o1	i
92	O=C(O)CCCCCNC(=O)c1ccccc1	i
93	Nc1nc(SCC(=O)N2CCCc3ccccc32)n(-c2ccccc2)n1	0.4
94	CCOC(=O)C1=C(C)NC(C)=C(C(=O)OCC)C1C(=O)OCC(=O)N1CCC(C)CC1	1.1
95	O=C(O)c1cccc(C(=O)Nc2cccc(NC(=O)C3CCCO3)c2)c1 (configuration not stated)	0.9
96	COc1ccc(C)cc1S(=O)(=O)Nc1ccc(F)c(Cl)c1	9.4
97	Cn1c(=O)[nH]c(=O)c2c1nc(N1CCN(Cc3ccccc3)CC1)n2CCCc1ccccc1	0.7
98	O=S(=O)(c1cccc(-c2nnc(SCc3nc4ccccc4s3)o2)c1)N1CCOCC1	5.1
99	O=C(CN(CC1CCCO1)C(=O)CNS(=O)(=O)c1ccccc1)NCc1ccccc1 (configuration not stated)	0.9
100	COc1cccc(-n2c(COc3ccc(C)cc3)nnc2SCC(=O)O)c1	0.5
101	O=C(Nc1ccc2c(c1)OCCO2)c1cc(-c2ccccc2)nc2ccccc12	1.7
102	CC12C=CC3(O1)C(C(=O)N(c1cccnc1)C3C(=O)NC1CCCCC1)C2C(=O)Nc1ccccc1 (configuration not stated)	i
103	CCOc1ccc(S(=O)(=O)NC(C)(C)C)cc1-c1nc2c(C(C)(C)C)nn(C)c2c(=O)[nH]1	1.4
104	O=C(CC1(O)C(=O)Nc2cc(Cl)cc(Cl)c21)c1ccncc1 (configuration not stated)	i
105	CCOc1ccccc1N=c1oc2cc(O)ccc2cc1C(=O)NCC1CCCO1 (configuration not stated)	0.5
106	CC(=O)Nc1nonc1-c1nc2ccccc2n1CCC#N	0.5
107	Cc1cc(C)cc(N(CC(=O)NCc2cccnc2)S(C)(=O)=O)c1	0.1
108	CN1CCN(c2ccc(N)c(N3CCN(C)CC3)c2)CC1	1.3
109	COc1ccc(/C=C(\NC(=O)c2ccc(OC)cc2)C(=O)NC(CCSC)C(=O)O)cc1 (configuration not stated)	i
110	O=c1c2cccc3c2c(nn1-c1ccccc1)-c1ccccc1-3	2.1
111	CN1CCN(Cc2ccc(-c3ccc(Cl)cc3)o2)CC1	i
112	COc1ccc(/C=N/NC(=O)c2ccc(COc3ccccc3Cl)o2)cc1	1.9
113	CN(C)c1oc(-c2cccs2)nc1C#N	1.7
114	O=C(Nc1ccccc1)c1ccc(CSc2ncccn2)cc1	i
115	CCc1cccc(C)c1NC(=O)C1C2CCC(O2)C1C(=O)O (configuration not stated)	0.7
116	Fc1cccc(F)c1CSc1nc2ccccc2[nH]1	0.3
117	Cc1cc(OCC(=O)NC2CCS(=O)(=O)C2)c2c3c(c(=O)oc2c1)CCC3 (configuration not stated)	1.0
118	Cc1noc(C)c1C(=O)N1CCCC1	i
119	Cc1ccc(S(=O)(=O)c2nc(-c3ccc(F)cc3)oc2SCC(N)=O)cc1	0.7
120	CCOC(=O)C1CCN(C(=O)C2CCN(c3nc4ccc(OC)cc4s3)CC2)CC1	i
121	CCOC(=O)CNC(=O)C(=O)c1c(O)[nH]c2ccccc12	0.4
122	CC(=O)NC1CC2CCCC(C1)N2C(=O)Nc1ccccc1 (configuration not stated)	i
123	Cc1cc(C)n(CC(O)COc2ccccc2C(=O)Nc2ccccc2)n1 (configuration not stated)	i
124	CC(C)C(c1nnnn1Cc1ccc(F)cc1)N1CCN(C2CCCCC2)CC1 (configuration not stated)	i
125	Cc1csc(SCC(=O)O)n1	i
126	Oc1ccc2ccccc2c1N=Nc1ccccn1	i
127	N#Cc1c(N)nc(-c2ccccc2)nc1-c1ccccc1	0.1
128	CCN(CCO)Cc1csc2c(Br)cccc12	1.6
129	CCn1c(=O)cc(SCC(=O)NCc2ccccn2)c2ccccc21	0.8
130	CCCOc1ccc(N2C(=O)CC(N(C(=O)c3ccco3)c3ccc(OCCC)cc3)C2=O)cc1 (configuration not stated)	1.1
131	COc1ccc(OC)c(-c2cc(C(=O)N3CCN(c4ccccc4)CC3)no2)c1	i
132	CC(C)OC(=O)c1nnc(Cc2ccc(F)cc2)o1	0.2
133	O=c1n(-c2ccccc2)c(=O)n(Cc2ccccn2)n1Cc1ccccn1	0.3
134	CC[n+]1c(/C=C/N(C)c2ccccc2)sc2ccc(Cl)cc21	i
135	CCNc1nc2[nH]c(=O)c3c(c2s1)OC(N)=C(C#N)C3c1ccc(C)cc1 (configuration not stated)	i

From PubChem BioAssay
